ERG Ets-DNA blk: ERG Ets/DNA interaction inhibition. P11308. 370,000 tested, 0.028% active. fluorescence polarization, His-ERG Ets domain / labelled DNA. AID 624246. Potency, µM (top dose mostly 76.9 µM), for inactives: at the top dose FP activity, negative = inhibition, usual class: inhibitors; active = well fitted inhibition curve with a large enough effect in the polarisation, with a control signal flat; inconclusive = small, poorly fitted or top-dose-only effect, or effect the other way, or a change in a side signal; inactive = no such curve, though single readings can be large or run the other way; the % refers to the polarisation;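 note: polarization taken with two DNA probes labelled with fluorescein and Texas red; potency is the fitted concentration of half-maximal effect; % of control where 0% means no effect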
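His-tagged ERG Ets domain (1 uM in the protein solution; 300mM KCl, 50mM Tris-HCl, 1mM EDTA, 1mM DTT, pH 7.5) received compound, then a probe mix of 5 nM fluorescein-DNA and 100nM Texas-615-DNA. Fluorescence polarization was read for both dyes.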
Anesthetic bind: binds horse apoferritin like a general anesthetic | Potency, µM (titrated, usually from 77.5 µM), without a hit: at the highest dose activity change, negative = displacement, usual class: inhibitors | 350,000 tested, 0.074% active | apoferritin/1-aminoanthracene competitive binding, fluorescence | P02791; note: potency is the fitted concentration of half-maximal effect; % is set by controls: 0 for no effect and ±100 for the full control effect; nearly all actives have a fitted effect of over 20% in size
Target sequence (P02791 2-175 limits assumed): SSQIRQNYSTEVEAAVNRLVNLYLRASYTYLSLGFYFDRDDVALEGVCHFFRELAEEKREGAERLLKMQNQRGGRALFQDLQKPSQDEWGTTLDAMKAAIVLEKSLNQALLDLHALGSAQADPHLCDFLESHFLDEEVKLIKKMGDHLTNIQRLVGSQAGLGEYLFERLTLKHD
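Apoferritin-based anesthetic binding model; compound displacement of fluorescent 1-AMA measured as endpoint fluorescence after 10 minutes at room temperature, scaled to free-ligand and complex controls.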
12-LOX inh: blocks human arachidonate 12S-lipoxygenase; purified 12hLO, xylenol orange hydroperoxide absorbance; Potency, µM (titrated, usually from 108 µM), for the others: top-dose activity change, negative = inhibition, actives largely listed as inhibitors; P18054; 580,000 tested, 1.1% active; note: potency is the fitted concentration of half-maximal effect; % is set by controls: 0 for no effect and ±100 for the full control effect
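Purified human 12hLO (150 nM final) in 25 mM Hepes, 0.01% Triton X-100, pH 7.0 was preincubated 15 min at room temperature with compound. Then 40 uM arachidonic acid was added, 30 min. Hydroperoxide was read by Fe-XO absorbance ratio 573/405 nm.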
POLI inh: inhibitors of human DNA polymerase iota; Pol iota fluorescent replication assay, 10 min; Q9UNA4; 390,000 tested, 1% active; Potency, µM (highest dose often 115 µM), for the others: top-dose activity, negative = inhibition, actives largely listed as inhibitors; note: potency is the fitted concentration of half-maximal effect
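Fluorescent replication assay read twice, at 0 min and 10 min after adding 50 nM (final) substrate. Enzyme (10 nM) and compounds were first incubated 15 min at room temperature; enzyme-free buffer wells were negative controls.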
BLM helicase inh: inhibitors of human Bloom syndrome helicase BLM. Potency, µM (series often up to 56.1 µM), without a hit: top-dose activity change, negative = inhibition, actives largely listed as inhibitors. 350,000 tested, 0.2% active. P54132. recombinant BLM DNA unwinding, fluorescence dequenching;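 note: potency is the fitted concentration of half-maximal effect; plate controls were vehicle for no effect and no enzyme for full effect; nearly all actives have a fitted effect of over 35% in size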
TRHR agonist: activates the human TRH receptor; P34981; TRHR cells, calcium flux fluo-8, FDSS agonist mode; activation, % at 2 µM; 360,000 tested, 0.18% active; AID 493084; in the data active = activation above about 30%; note: 0% is about no effect
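Read-out: compound-evoked intracellular calcium rise in TRHR cells, fluo-8 dye, kinetic FDSS fluorescence at 1 s/cycle following a 10-cycle baseline. Cells cultured overnight before dye loading (30 min–1.5 h, RT).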
POLK inh: DNA polymerase kappa (human) inhibition; purified Pol kappa, fluorescent DNA synthesis assay, 10 min; Potency, µM (doses to about 107 µM), for the others: at the top dose activity, negative = inhibition, actives largely listed as inhibitors; 400,000 tested, 0.53% active; AID 588579; note: potency is the fitted concentration of half-maximal effect; % is set by controls: 0 for no effect and ±100 for the full control effect
Target sequence (Q9UBT6 whole entry, looked up): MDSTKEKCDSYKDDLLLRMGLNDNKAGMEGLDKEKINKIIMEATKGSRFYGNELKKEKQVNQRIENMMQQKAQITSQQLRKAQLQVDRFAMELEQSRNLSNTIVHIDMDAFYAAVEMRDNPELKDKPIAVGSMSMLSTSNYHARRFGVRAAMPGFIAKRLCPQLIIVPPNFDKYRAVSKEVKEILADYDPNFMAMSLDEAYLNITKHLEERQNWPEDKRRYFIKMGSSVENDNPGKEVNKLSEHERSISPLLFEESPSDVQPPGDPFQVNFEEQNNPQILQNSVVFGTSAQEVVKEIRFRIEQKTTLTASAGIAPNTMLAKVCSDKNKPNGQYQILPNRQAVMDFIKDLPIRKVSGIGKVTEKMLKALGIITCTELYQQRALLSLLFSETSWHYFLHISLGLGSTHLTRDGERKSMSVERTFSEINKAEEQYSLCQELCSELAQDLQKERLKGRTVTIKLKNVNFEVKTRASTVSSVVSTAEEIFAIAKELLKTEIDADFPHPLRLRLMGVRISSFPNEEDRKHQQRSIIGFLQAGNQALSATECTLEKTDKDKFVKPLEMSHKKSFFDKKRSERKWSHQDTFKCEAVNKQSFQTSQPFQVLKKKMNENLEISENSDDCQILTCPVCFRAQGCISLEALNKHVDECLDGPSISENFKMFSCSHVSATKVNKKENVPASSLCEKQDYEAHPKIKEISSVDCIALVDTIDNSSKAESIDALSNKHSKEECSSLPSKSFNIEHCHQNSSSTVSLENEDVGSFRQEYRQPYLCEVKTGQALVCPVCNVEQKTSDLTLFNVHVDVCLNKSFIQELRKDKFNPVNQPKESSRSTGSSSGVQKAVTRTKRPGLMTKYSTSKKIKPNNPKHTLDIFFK
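Inhibition of 10 nM Pol kappa is measured by a fluorescent read-out at 0 and 10 min following addition of 50 nM substrate (final), with a 15-min room-temperature compound preincubation.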
* marks the source's active call; other numbers are inactive results; i = inactive; ? = inconclusive; / = no result given; & = joins results of further samples; [ ] = another dose, or the depositor's remark. Unless noted, calls come from the whole dose curve; as a rule, active = well fitted curve in the direction sought with a large enough effect; inconclusive = small, poorly fitted or top-dose-only effect, or another doubt; inactive = no such curve, though single readings can be large; an effect the other way counts as inactive or inconclusive. Only part of the results is shown; rates above refer to the full screens.

SMILES	ERG Ets-DNA blk	Anesthetic bind	12-LOX inh	POLI inh	BLM helicase inh	TRHR agonist	POLK inh
Cc1ccc(S(=O)(=O)N(C)C)cc1N	-1%	-13%	3%	12%	1%	0.6	8%
Cc1cccc(CCNC(=O)CCS(=O)(=O)c2cc3c(cc2Cl)NC(=O)CO3)c1	1%&-3%	-2%&-3%	11%&7%&0%	?	1%&4%	-0.7&-0.1	-13%&-6%
O=C(COc1ccc2oc(-c3ccco3)cc(=O)c2c1)N1CCCCC1	-5%	-10%	-9%	?	-14%	-0.4	-3%
CCN(CC)S(=O)(=O)c1cc(C(=O)n2cccn2)c(Cl)cc1Cl	/	-10%	14%	2%	-4%	0.2	-2%
O=C(COC(=O)c1cc([N+](=O)[O-])ccc1NCCO)Nc1ccc2c(c1)OCO2	3%	-22%	-2%	108%[activator]	1%	-0.9	-15%
O=C(O)c1c2c(nc3ccccc13)/C(=C/c1ccccc1[N+](=O)[O-])CCC2	-8%	-1%	?	-1%	1%	0.9	-2%
Cc1oc2ccc(OCc3c(F)cccc3Cl)cc2c1C(=O)O	-14%	4%	-3%	0%	0%	-0.7	12%
CCn1c(COc2cccc(C)c2)nnc1SCC(=O)Nc1cccc(C(=O)O)c1	-2%	2%	0%	-9%	2%	0.7	-16%
COc1ccc(/C=C/C(=O)OCC(=O)Nc2cc(S(=O)(=O)N(C)C)ccc2Cl)cc1	0%	?	-2%	23%	-2%	0.3	0%
CCCc1cc(=O)[nH]c(SCC(=O)Nc2ccc3ccccc3c2)n1	?	/	2%	13%	/	/	4%
Cc1ccccc1-c1cc(NCc2ccccc2)ncn1	/	/	?	/	-4%	/	-2%[60.1 µM]
Cc1ccc(-c2ccc(C(=O)O)o2)cc1Cl	-5%	-1%	1%	17%	-2%	0.7	-17%
O=C(N1CCOCC1)N(Cc1ccco1)CC1CCCO1 (stereo not drawn)	-1%	-7%	6%	14%	0%	0.5	-17%
Cc1ccc(N2CC(C)Cn3c2nc2c3c(=O)[nH]c(=O)n2C)cc1C (stereo not drawn)	5%	3%	-20%	81%[activator]	-2%	-0.6	6%
Cc1ccc(OCC(=O)Nc2cccc(S(=O)(=O)NC3=NCCCCC3)c2)cc1C	-4%	-18%	-6%	25%	-3%	-0.6	-10%
Cc1ccc(C(=O)N/N=C\c2ccc(OC(=O)c3cccc(F)c3)cc2)cn1	-5%	-6%	-4%	65%[activator]	-6%	0.3	-10%
C/C(=N\NC(=O)c1ccc(NS(=O)(=O)c2cccs2)cc1)c1ccccn1	4%	-9%	/	-15%	1%	0.1	?
COc1ccccc1CN(C)C(=O)C1(c2ccc(Cl)cc2)CC1	-1%	-3%	-1%	18%	-4%	-0.1	-22%
CCN(c1ccccc1)S(=O)(=O)c1ccc(Cl)c(NC(=O)CNC(C)c2ccccc2)c1 (stereo not drawn)	15%	/	13%	18%	/	/	-9%
CC1CCCN(C(=O)COC(=O)Cc2c(F)cccc2Cl)C1 (stereo not drawn)	-8%	-17%	-5%	18%	-2%	-0.8	5%
Cc1cc(-c2csc(NC(=O)c3ccc(C#N)cc3)n2)c(C)n1Cc1ccco1	-2%	-17%	?	?	-17%	0.2	?
Cc1ccc2c(c1)C(=O)[C@]1(O)CCN(c3ccccc3)C1=N2	/	91%&113%[activator]	67%[activator][57.4 µM]	/	-3%&-2%	/	13%[60.1 µM]
COC(=O)C1=NN(c2cccc3ccccc23)C2C(=O)N(c3ccccc3OC)C(=O)C12 (stereo not drawn)	5%	5%	157%[activator]	45%[activator]	-2%	0.6	-16%
COc1cc(NC(=O)c2ccc(Br)o2)c(C(=O)O)cc1OC	-9%	-2%	?	15%	-5%	-0.2	-9%
CC(=O)c1ccc(NC(=O)c2cnsn2)cc1	11%	-7%	5%	113%[activator]	0%	0.1	6%

A run of entries taken from the entries so far, as a working copy:
SMILES	ERG Ets-DNA blk	Anesthetic bind	12-LOX inh	POLI inh	BLM helicase inh	TRHR agonist	POLK inh
CCN(c1ccccc1)S(=O)(=O)c1ccc(Cl)c(NC(=O)CNC(C)c2ccccc2)c1 (stereo not drawn)	15%	/	13%	18%	/	/	-9%
CC1CCCN(C(=O)COC(=O)Cc2c(F)cccc2Cl)C1 (stereo not drawn)	-8%	-17%	-5%	18%	-2%	-0.8	5%

Reprinted at random: 3 entries already listed, in no set order.
SMILES	ERG Ets-DNA blk	Anesthetic bind	12-LOX inh	POLI inh	BLM helicase inh	TRHR agonist	POLK inh
CC(=O)c1ccc(NC(=O)c2cnsn2)cc1	11%	-7%	5%	113%[activator]	0%	0.1	6%
COc1ccc(/C=C/C(=O)OCC(=O)Nc2cc(S(=O)(=O)N(C)C)ccc2Cl)cc1	0%	?	-2%	23%	-2%	0.3	0%
COC(=O)C1=NN(c2cccc3ccccc23)C2C(=O)N(c3ccccc3OC)C(=O)C12 (stereo not drawn)	5%	5%	157%[activator]	45%[activator]	-2%	0.6	-16%

(more compounds)
SMILES	ERG Ets-DNA blk	Anesthetic bind	12-LOX inh	POLI inh	BLM helicase inh	TRHR agonist	POLK inh
COc1ccc(C2CC(=O)N3CN(c4ccc(C)c(Cl)c4)CSC3=C2C#N)cc1 (stereo not drawn)	-2%	?	4µM*	?	-6%	0.4	0%
CC(=O)Nc1ccc(C=NNC(=O)c2ccc(NS(=O)(=O)c3cccs3)cc2)cc1	-7%	/	-2%	2%	/	/	-8%
O=C(COc1ccccc1[N+](=O)[O-])Nc1cccc(S(=O)(=O)NC2=NCCCCC2)c1	-7%	/	?	79µM*	/	0.6	-34%
O=C(O)c1c2c(nc3ccccc13)/C(=C/c1cccc([N+](=O)[O-])c1)CCC2	1%	2%	40µM*	144%[activator]	1%	0.6	8%
Cc1cc(=O)oc(C)c1C(=O)NCC1CCCO1 (stereo not drawn)	7%	1%	0%	6%	2%	0.8	-24%
Cc1cccc(OCCCn2ccnc2)c1	-2%	8%	-12%	-13%	-2%	0.0	0%
CCOC(=O)N1CCN(C(=O)Nc2ccc3oc(C)nc3c2)CC1	/	-1%	1%	22%	4%	1.9	-4%
COc1ccc(C)c2sc(N(CCN(C)C)C(=O)/C=C/c3cccs3)nc12	3%	-15%	-13%	-11%	-1%	4.7	5%
O=C(N/N=C/c1ccc(Cl)cc1)c1sccc1OCc1ccc(F)cc1	6%	-12%	10%	?	-12%	0.4	?
C1CCc2nnnn2CC1	/	3%[29.3 µM]	0%	4%[58.9 µM]	-1%	/	-8%[60.1 µM]
Cc1ccc(NC(=O)CCS(=O)(=O)c2cc3c(cc2Cl)NC(=O)CO3)cc1	0%	-8%	3%	-20%	1%	-0.1	-16%
NC(=O)c1ccccc1OCc1cccc2ccccc12	-4%	1%	-17%	30%[activator]	-1%	-1.9	-20%
Cc1ccc(OCc2nnc(SCC(=O)Nc3ccc4c(c3)OCCO4)n2Cc2ccco2)cc1	-11%	51%[activator]	7%	0%	-14%	0.1	-11%
COc1ccccc1CNc1ncncc1-c1ccoc1	/	-14%	?	/	-12%	/	-16%[60.1 µM]
O=c1[nH]c(NNC(=S)NC2CCCCC2)nc2c1C1(CCCC1)Cc1ccccc1-2	3%	?	?	4%	-11%	-0.7	7%
COc1ccc(/C=C2\CCc3c2nc2ccccc2c3C(=O)O)cc1OC	1%	224%[activator]	?	?	0%	1.6	-23%
Cn1c(SCC(=O)Nc2sccc2C#N)nnc1C1CC1	-8%	/	196%[activator]	?	/	/	-11%
O=c1oc2ccccc2cc1-c1csc(Cc2nc(-c3ccc(Cl)cc3)cs2)n1	-13%	-7%	8%	7%	-1%	0.3	-6%
Cc1sc2ncn(CC(=O)NCCCC(=O)N3CCC(C(N)=O)CC3)c(=O)c2c1C	-4%	33%[activator]	1%	197%[activator]	-2%	-0.4	-6%
O=C(Cc1c(Cl)cccc1Cl)OCC(=O)N1CCOCC1	-4%	/	301%[activator]	21%	/	/	-12%
CC1CN(C2CC(C)(C)NC(C)(C)C2)CCC1=O (stereo not drawn)	-12%	-3%	0%	17%	0%	-0.2	0%
Cc1ccccc1CN1CCN(Cc2cc(=O)c3ccccc3[nH]2)CC1CCO (stereo not drawn)	15%	-10%	?	10%	2%	0.0	-8%
COc1ccc(/C=C2/Sc3ccc(C(=O)N4CCOCC4)cc3NC2=O)cc1OC	-4%	-8%	-2%	-19%	-1%	0.3	14%
O=C(CSc1nc(O)cc(=O)[nH]1)N1c2ccccc2CCc2ccccc21	4%	-7%	-19%	?	-3%	0.1	-5%
COc1cccc(COc2ccc3c(C)cc(=O)oc3c2)c1	4%	5%	11%&29%	131%[activator]	-5%	-0.2	-12%

Remaining list, next part:
SMILES	ERG Ets-DNA blk	Anesthetic bind	12-LOX inh	POLI inh	BLM helicase inh	TRHR agonist	POLK inh
CCCN1CCN(C(=O)CCCNC(=O)Cn2cnc3sc(C)c(C)c3c2=O)CC1	0%	-8%	17%	10%	3%	0.2	-11%
Cc1oc2c(F)c(F)c(F)c(F)c2c1S(=O)(=O)Nc1cccc(C(F)(F)F)c1	17%	-22%	0%	?	-19%	0.8	-6%
CC1CC1C(=O)OCC(=O)NC(=O)NCc1ccco1 (stereo not drawn)	-2%	-6%	-2%	-4%	-6%	0.0	-13%
CC(C)c1ccc(NC(=O)CN(Cc2ccccc2)S(C)(=O)=O)cc1	7%	-24%	0%[57.4 µM]	1%	-16%	-0.2	0%
O=C(N/N=C/c1ccc(OC(=O)c2ccccc2)cc1)c1cccc(O)c1	7%	-12%	-3%	27%	-12%	-0.7	-6%
COCCN(Cc1nc(C2(c3ccc(C)cc3)CCCC2)no1)C(C)C	5%	-13%	0%	169%[activator]	-5%	-0.2	-7%
COc1ccc(Cl)cc1NC(=O)CCS(=O)(=O)c1cc2c(cc1C)NC(=O)CO2	-6%	-15%	14%	-8%	1%	-0.4	-17%
CCN(CC)C(=O)CNc1ccc(C(F)(F)F)cc1[N+](=O)[O-]	0%	-2%	-4%	21%	0%	-0.3	-4%
C=CCN(c1ccccc1)S(=O)(=O)c1cc2c(cc1C)NC(=O)CO2	-8%	4%	i	12%	-2%	-0.6	2%
COc1cc(OC)cc(C(=O)N/N=C\c2ccoc2)c1	2%	-6%	6%	?	-3%	-0.1	-29%
Cc1nc2cc(NC(=O)Nc3ccc(Br)cc3)ccc2o1	13%	-10%	-8%	13%	-3%	1.4	-14%
Cc1cc2c(cc1S(=O)(=O)CCC(=O)NCCc1ccccc1)OCC(=O)N2	2%&-2%	-8%&47%	13%&-5%	38%&25%[activator]	2%&-9%	-0.2&-0.2	13%&4%
Cc1c(C)c2ccc(OC(C)C(=O)N3C[C@H]4C[C@@H](C3)c3cccc(=O)n3C4)c(C)c2oc1=O (stereo partly drawn)	-2%	-13%	17%	24%	-11%	-0.1	-11%
O=C(O)c1ccc(OCCn2ccnc2)cc1	21%	-7%	-20%	-15%	-1%&-4%	-0.5	1%
CN1CN(C)C(c2ccncc2)=C1c1ccncc1	0%	-3%	101%[activator]	26%	-5%	-0.4	8%
CCOC(=O)c1nnn(-c2nc(OC)nc(N3CCCCC3)n2)c1-c1ccccc1	/	-20%	/	/	-2%	0.1	/

Assay outcomes: PubChem BioAssay, National Center for Advancing Translational Sciences (NCATS)
